# Screens (PubChem BioAssay)
# LASV entry inh = blocks Lassa virus binding to or entry into cells; Lassa virus pseudotype entry inhibition, cell reporter; control for the full effect not named in the record; Potency, µM (highest dose often 37.9 µM), for the others: at the highest dose activity change, negative = inhibition, most hits filed as inhibitors; hit rate 1.2% among 300,000; AID 540256; active means well fitted inhibition curve with a large enough effect; inconclusive means small, poorly fitted or top-dose-only effect, or effect the other way; inactive means flat fitted curve, though single readings scatter; tested in HEK293 cells; also: % is scaled to controls: 0 for no effect and ±100 for the full control effect; nearly all actives have a fitted effect of over 50% in size; luciferase read-out
# RE007 growth inh = less growth of the S. pombe RE007 Vpr strain; AID 651644; hit rate 0.21% among 360,000; S. pombe RE007 Vpr strain, BacTiter-Glo ATP luminescence, 24 h; control for the full effect not named in the record; Potency, µM (series often up to 92.2 µM), without a hit: at the highest dose activity change, negative = less growth; active = well fitted falling curve with a large enough effect; inconclusive = small, poorly fitted or top-dose-only effect; inactive = no such curve, though single readings can be large or run the other way;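 also: % is scaled to controls: 0 for no effect and ±100 for the full control effect; nearly all actives have a fitted effect of over 50% in size; the assay follows cell death caused by Vpr and the record does not say whether a fall means rescue or toxicity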
#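 Fission yeast RE007 carrying one integrated HIV-1 vpr copy, seeded at OD 0.01 in PMG+AL medium with 23 nL pinned compound. Grown 24 h at 30 degrees; viability read by BacTiter-Glo luminescence after 5 min.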
# SARS PLP yeast = SARS-CoV PLP inhibition in yeast; Potency, µM (doses to about 32.9 µM), inactives show at the highest dose activity, positive = growth rescue; AID 485353; S. cerevisiae expressing SARS-CoV PLpro, growth rescue; control for the full effect not named in the record; hit rate 0.19% among 330,000; active means well fitted rising curve with a large enough effect; inconclusive means small, poorly fitted or top-dose-only effect; inactive means no such curve, though single readings can be large or run the other way; also: 0% is about no effect; nearly all actives have a fitted effect of over 55% in size; growth read by luminescence after 48 h
# Cruzain Triton = inhibitors of Trypanosoma cruzi cruzain with detergent; purified cruzain, Z-FR-AMC fluorescence, 0.01% Triton; hit rate 0.43% among 200,000; P25779; AID 1478; Potency, µM, for inactives: max response, negative = inhibition, most hits filed as inhibitors;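 also: plate controls were neutral wells for no effect and buffer without enzyme for full effect; nearly all actives have a fitted effect of over 40% in size; top concentration of the series not given in the record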
# Target sequence (P25779 123-467 limits assumed): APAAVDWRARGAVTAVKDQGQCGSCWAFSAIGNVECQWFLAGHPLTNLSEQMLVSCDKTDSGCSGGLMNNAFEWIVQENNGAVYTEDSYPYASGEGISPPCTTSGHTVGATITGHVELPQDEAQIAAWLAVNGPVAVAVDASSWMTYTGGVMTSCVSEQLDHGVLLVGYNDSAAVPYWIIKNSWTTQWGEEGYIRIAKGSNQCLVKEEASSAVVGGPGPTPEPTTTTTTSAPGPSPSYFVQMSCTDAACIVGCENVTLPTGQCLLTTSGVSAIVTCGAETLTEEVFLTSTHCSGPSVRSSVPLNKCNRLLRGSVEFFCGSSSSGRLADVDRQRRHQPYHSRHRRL
#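 Z-FR-AMC hydrolysis (2 uM substrate) by cruzain (1.5 nM) monitored kinetically at ex 360/em 450 nm after 15 min room-temperature compound exposure; 0.01% Triton X-100, pH 5.5, 5 mM DTT.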
# NS1 function inh = blocks influenza NS1 protein function. hit rate 0.4% among 270,000. AID 2326. S. cerevisiae slowed by influenza A NS1, growth recovery by OD600. Potency, µM (titrated, usually from 46.1 µM), without a hit: at the highest dose activity, positive = more growth; active means well fitted rising curve with a large enough effect; inconclusive means small, poorly fitted or top-dose-only effect; inactive means no such curve, though single readings can be large or run the other way; also: nearly all actives have a fitted effect of over 50% in size
#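 Growth recovery, yeast-based: influenza A NS1 expressed in S. cerevisiae causes slow growth, and suppressors are detected by OD600. The parent strain without NS1 is used as positive control.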
# 2A StopGo = lowers the luciferase signal of an FMDV 2A StopGo reporter; hit rate 1.2% among 410,000; AID 1159524; Potency, µM (highest dose often 57.9 µM), for inactives: at the top dose signal change, negative = less light; human cells with a luciferase reporter of 2A StopGo recoding; control for the full effect not named in the record; active = well fitted falling curve with a large enough effect; inconclusive = small, poorly fitted or top-dose-only effect; inactive = no such curve, though single readings can be large or run the other way; tested in HEK293T cells; also: % is scaled to controls: 0 for no effect and ±100 for the full control effect; nearly all actives have a fitted effect of over 45% in size; luciferase light after 4 h
# Cruzain inh noDet = blocks cruzain activity in detergent-free assay; Potency, µM, for the others: max response, negative = inhibition, hits mostly inhibitors; hit rate 2.3% among 200,000; purified cruzain, Z-FR-AMC fluorescence, no detergent; AID 1476;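 also: plate controls were enzyme without inhibitor for no effect and buffer without enzyme for full effect; nearly all actives have a fitted effect of over 40% in size; top concentration of the series not given in the record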
#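 Detergent-free condition (0.00005% Triton X-100) in acetate buffer pH 5.5 with DTT. 1.5 nM enzyme and compound were pre-mixed 15 min, then 2 uM Z-FR-AMC substrate added; reaction progress from fluorescence change between first and third reads (60 s).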
# Marburg entry inh = blocks Marburg virus binding to or entry into cells | Marburg virus pseudotyped entry inhibition, cell reporter; control for the full effect not named in the record; about a third of the inactives were read at about 46 µM | Potency, µM (titrated, usually from 37.8 µM), for inactives: at the top dose activity change, negative = inhibition, most hits filed as inhibitors | hit rate 1.8% among 300,000 | AID 540276; active = well fitted inhibition curve with a large enough effect; inconclusive = small, poorly fitted or top-dose-only effect, or effect the other way; inactive = flat fitted curve, though single readings scatter; tested in HEK293 cells; about a fifth of its hits are not listed in these tables; also: % is scaled to controls: 0 for no effect and ±100 for the full control effect; luciferase read-out
# * = called active by the depositor; ? = inconclusive; / = no result given; [ ] = remark or other dose. Unless noted, calls follow the shape of the dose curve; as a rule, active = well fitted curve in the direction sought with a large enough effect; inconclusive = small, poorly fitted or top-dose-only effect, or another doubt; inactive = no such curve, though single readings can be large; an effect the other way counts as inactive or inconclusive. Potency is read from the fitted curve at half-maximal effect.
SMILES	LASV entry inh	RE007 growth inh	SARS PLP yeast	Cruzain Triton	NS1 function inh	2A StopGo	Cruzain inh noDet	Marburg entry inh
Cc1c(C#N)sc2nc(-c3ccccc3)nc(N3CCCC3)c12	20%	-19%	-4%	-19%	10%	-15%	-5%	?
N#Cc1ccsc1NC(=O)COc1ccc(-c2nnco2)cc1	23%	0%	3%	-4.0%	-6%	37%[activator]	-26%	28%
O=C(N/N=C/c1ccc(O)cc1)c1cc(C23CC4CC(CC(C4)C2)C3)[nH]n1	12%	-19%	1%	/	-1%	-2%	/	-8%[46.1 µM]
COc1ccc(S(=O)(=O)N2CCc3ccccc3C2)cc1OC	-1%	10%	16%	6.0%	5%	12%	-3%	-12%
CCCc1cc(NCC2CCCO2)n2c(nc3ccccc32)c1C#N (stereo unspecified)	1%	-15%	-3%	-22%	-13%	-20%	7%	-10%
O=C1c2ccsc2SCCN1Cc1ccc(Cl)cc1	-23%	?	-16%	0.2%	-115%	-14%	4%	-14%
COc1cccc(NC(=S)N(CCN2CCCCC2)Cc2ccco2)c1	-8%[46.1 µM]	-6%	3%	/	/	-1%	/	?
COc1cc(C(F)(F)F)c(C(=O)N(C)Cc2cccc(Cl)c2)cn1	?	-5%	0%	/	4%	-5%	/	-6%
O=C(NCc1ccccn1)c1ccc(OC2CCN(Cc3ccc(F)cc3F)CC2)cc1	-27%[46.1 µM]	-12%	-3%	/	11%	-2%	/	?
Cc1nc2ccccn2c1-c1csc(Nc2cccc(O)c2)n1	?	16%	1%	/	3%	?	/	?
Cc1ccc(C(=O)NCCc2nnc3ccc(NCCCN4CCOCC4)nn23)cc1	/	5%	3%	/	-10%	-17%	/	/
COCc1cc(C)nc(OCC(=O)N/N=C/c2cc(C)n(-c3c(C)cccc3C)c2C)c1C#N	?	14%	3%	-2.7%	-10%	-11%	10%	?
CN(C(=O)CSc1ncnc2sc3c(c12)CCCC3)C1CCS(=O)(=O)C1 (stereo unspecified)	/	29%	5%	/	/	?	/	-10%[46.1 µM]
Cc1ccc(N=Cc2c(O)n(-c3nccs3)c(=O)c3ccccc23)c(C)c1	4%	-14%	-21%	0.7%	-2%	-13%	14%	2%
O=C(Nc1ccccc1Br)C(=O)N1CCCC1	-2%	-6%	5%	0.4%	-4%	32%[activator]	-2%	20%
COc1ccc(NC(=O)c2nnn(CC(=O)Nc3ccccc3OC)c2N)c(OC)c1	/	7%	?	/	8%	-4%	/	/
O=C(OC(C(=O)NC1CCCCC1)c1ccc(C(F)(F)F)cc1)c1ccco1 (stereo unspecified)	-10%	-3%	9%	/	/	-7%	/	24%
CSc1ncccc1C(=O)OCCCC(=O)c1ccc(F)cc1	-8%	5%	1%	/	/	-14%	/	?
CC(CN)(NS(=O)(=O)c1ccccc1)c1ccccc1 (stereo unspecified)	0%	5%	-8%	/	13%	-15%	/	2%
Nn1c(SCC(=O)N2CCCCCC2)nnc1-c1ccncc1	13%	8%	17%	-3.0%	1%	0%	3%	0%
COc1cccc(-c2nc(-c3ccncc3)no2)c1	-12%[46.1 µM]	-8%	0%	/	-2%	4%	/	?
CCC(C)NC(=O)NC(=O)CSc1nnc(-c2ccccc2F)n1C1CC1 (stereo unspecified)	-12%[46.1 µM]	5%	0%	/	5%	-11%	/	-12%[46.1 µM]
CC(C)(CNc1ccc([N+](=O)[O-])cc1C#N)N1CCOCC1	2%	-17%	0%	/	/	-18%	/	?
O=C(CN1C(=O)NC(Cc2ccccc2)C1=O)Nc1ccc(OC(F)F)cc1 (stereo unspecified)	-3%	0%	-9%	/	/	-6%	/	/
CC(C)(C)n1nc2c(c1NC(=O)Cc1cccc3ccccc13)CS(=O)C2 (stereo unspecified)	/	9%	-12%	1.1%	7%	-25%	5%	/
COc1cccc(CNC(=O)c2csc3c2CCCC3)c1	?	-19%	-4%	/	-47%	3%	/	7%[46.1 µM]
CN(C)/C=C1\N=C(c2cccnc2Oc2ccc(Cl)cc2)OC1=O	-12%[46.1 µM]	0%	-1%	/	-2%	12%	/	0%[46.1 µM]
CC(Oc1ccc(Cl)cc1)C(=O)N1CCN(C(=O)c2ccco2)CC1 (stereo unspecified)	3%	-3%	-5%	/	/	-6%	/	12%
COc1ccc(S(=O)(=O)N=Nc2c(O)[nH]c3ccccc23)cc1	19%	8%	-2%	/	/	16%	/	6%
O=C(N/N=C/C(Br)=C/c1ccccc1)c1cnccn1	?	-7%	-5%	/	-7%	25%	/	?

# Two compounds from above with just RE007 growth inh, Marburg entry inh and LASV entry inh:
SMILES,RE007 growth inh,Marburg entry inh,LASV entry inh
CCCc1cc(NCC2CCCO2)n2c(nc3ccccc32)c1C#N (stereo unspecified),-15%,-10%,1%
CSc1ncccc1C(=O)OCCCC(=O)c1ccc(F)cc1,5%,?,-8%

# Going on with the list.
Compound	LASV entry inh	RE007 growth inh	SARS PLP yeast	Cruzain Triton	NS1 function inh	2A StopGo	Cruzain inh noDet	Marburg entry inh
O=C(c1ccc(COc2ccc(F)cc2)o1)n1cccn1	14%	?	-18%	16µM*	-33%	7%	13µM*	17%
CCCCSc1nc(O)c(C2OC(=O)c3c2ccc(OC)c3OC)c(=O)n1C (stereo unspecified)	-11%	13%	4%	3.6%	-6%	?	1%	1%[46.1 µM]
COCC(C)n1c(COc2ccccc2F)nnc1SCC(=O)c1c(N)n(C)c(=O)n(C)c1=O (stereo unspecified)	5%	-3%	0%	/	0%	-23%	/	2%
CCOC(=O)c1ccc(NC(=O)CCc2nc(-c3cccc(C)c3)no2)cc1	-20%	7%	-2%	-8.9%	-2%	?	16%	2%
Cc1cc(C)cc(NC(=O)c2cc(S(=O)(=O)N3CCc4ccccc43)cn2C)c1	?	/	/	-7.0%	/	-2%	-7%	/
COc1ccc(C(C)NC(=O)c2ccc(Cl)cc2)cc1OC (stereo unspecified)	3%	11%	5%	0.4%	-1%	-15%	18%	?
Cc1cc(Br)ccc1NC(=O)C(NS(=O)(=O)c1cccs1)c1ccccc1 (stereo unspecified)	3%[46.1 µM]	/	/	-7.3%	/	?	?	?
CC(C(=O)NCC(=O)Nc1ccc(F)c(F)c1F)N1CCN(Cc2ccc(C#N)cc2)CC1 (stereo unspecified)	9%	24%	1%	/	/	-23%	/	?
Cc1ccc(-c2noc(-c3ccc(N4CCCCC4)c([N+](=O)[O-])c3)n2)cc1	0%[46.1 µM]	/	/	-10%	/	?	6%	?
COc1ccc(C(=O)NCc2ccc(F)cc2)cc1S(=O)(=O)N1CCCC1	-15%	12%	1%	/	/	-1%	/	14%
CCN(CC)C(=O)C(=O)c1cccn1-c1ccccc1C#N	18%	-1%	-1%	-2.3%	3%	4%	9%	-1%[46.1 µM]
COCCCNC(=O)c1c(NC(=O)Cc2coc3cc(C)ccc23)sc2c1CCCC2	?	/	/	-7.6%	/	31%[activator]	6%	?
COc1ccc(-c2cn3c(C)c(C(=O)Nc4cccc(NC(C)=O)c4)sc3n2)cc1	1%	1%[3.69 µM]	2%	-5.8%	2%	8%	?	?
CC(=O)Nc1ccc(C(=O)OCc2ccccc2Cl)cc1	/	14%	-90%	-10%	-71%	88%[activator]	8%	/
CN(C)C(=O)[C@H]1C[C@H]1[C@@H](O)[C@H](CO)NC(=O)[C@H](COCc1ccccc1)NC(=O)OC(C)(C)C	/	-4%	17%	/	-17%	-15%	/	/
O=c1c(C/C=C/c2ccccc2)c(O)ccn1Cc1ccc(Cl)cc1Cl	14%[46.1 µM]	13%	1%	/	1%	-14%	/	-25%[46.1 µM]
COCCSc1ccccc1C(=O)NCc1ccco1	1%	9%	-37%	4.0%	?	/	-16%	9%
COc1cccc(CN2CCN(c3nc4nonc4nc3NC3CC3)CC2)c1	-6%	-6%	-1%	/	4%	-24%	/	25%[46.1 µM]
CC(=O)Nc1ccc(S(=O)(=O)N2CCN=C2SCc2ccc([N+](=O)[O-])cc2)cc1	?	28%	-4%	/	-7%	22µM*	/	13µM*
CCCOc1ccc(N2C(=O)CC(SC(=NCC)Nc3cccc(F)c3)C2=O)cc1 (stereo unspecified)	-28%	-3%	-13%	-0.3%	12%	7%	-21%	?

# Compound profiles, from the list above. Screens in order: LASV entry inh	RE007 growth inh	SARS PLP yeast	Cruzain Triton	NS1 function inh	2A StopGo	Cruzain inh noDet	Marburg entry inh
# COc1ccc(C(C)NC(=O)c2ccc(Cl)cc2)cc1OC (stereo unspecified) is listed with 3%	11%	5%	0.4%	-1%	-15%	18%	?
# CCN(CC)C(=O)C(=O)c1cccn1-c1ccccc1C#N is listed with 18%	-1%	-1%	-2.3%	3%	4%	9%	-1%[46.1 µM]
# CC(C(=O)NCC(=O)Nc1ccc(F)c(F)c1F)N1CCN(Cc2ccc(C#N)cc2)CC1 (stereo unspecified) is listed with 9%	24%	1%	/	/	-23%	/	?
# CCCOc1ccc(N2C(=O)CC(SC(=NCC)Nc3cccc(F)c3)C2=O)cc1 (stereo unspecified) is listed with -28%	-3%	-13%	-0.3%	12%	7%	-21%	?
# CCCCSc1nc(O)c(C2OC(=O)c3c2ccc(OC)c3OC)c(=O)n1C (stereo unspecified) is listed with -11%	13%	4%	3.6%	-6%	?	1%	1%[46.1 µM]
